# Compound activity deposited in PubChem BioAssay by National Center for Advancing Translational Sciences (NCATS).
# SARS PLpro yeast: blocks SARS-CoV papain-like protease in a yeast assay | S. cerevisiae expressing SARS-CoV PLpro, growth rescue; control for the full effect not named in the record | Potency, µM (highest dose often 32.9 µM), without a hit: at the highest dose activity, positive = growth rescue | hit rate 0.19% among 330,000; active means well fitted rising curve with a large enough effect; inconclusive means small, poorly fitted or top-dose-only effect; inactive means no such curve, though single readings can be large or run the other way; also: 0% is about no effect; nearly all actives have a fitted effect of over 55% in size; growth read by luminescence after 48 h
# RE007 growth inh: less growth of the S. pombe RE007 Vpr strain | S. pombe RE007 Vpr strain, BacTiter-Glo ATP luminescence, 24 h; control for the full effect not named in the record | Potency, µM (top dose mostly 92.2 µM), for inactives: top-dose activity change, negative = less growth | hit rate 0.21% among 360,000 | AID 651644; active = well fitted falling curve with a large enough effect; inconclusive = small, poorly fitted or top-dose-only effect; inactive = no such curve, though single readings can be large or run the other way;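 also: % is scaled to controls: 0 for no effect and ±100 for the full control effect; nearly all actives have a fitted effect of over 50% in size; the assay follows cell death caused by Vpr and the record does not say whether a fall means rescue or toxicity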
#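 Fission yeast RE007 carrying one integrated HIV-1 vpr copy, seeded at OD 0.01 in PMG+AL medium with 23 nL pinned compound. Grown 24 h at 30 degrees; viability read by BacTiter-Glo luminescence after 5 min.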
# 2A StopGo: FMDV 2A StopGo reporter, luciferase signal; human cells with a luciferase reporter of 2A StopGo recoding; control for the full effect not named in the record; hit rate 1.2% among 410,000; AID 1159524; Potency, µM (doses to about 57.9 µM), without a hit: top-dose signal change, negative = less light; active = well fitted falling curve with a large enough effect; inconclusive = small, poorly fitted or top-dose-only effect; inactive = no such curve, though single readings can be large or run the other way; tested in HEK293T cells; also: % is scaled to controls: 0 for no effect and ±100 for the full control effect; nearly all actives have a fitted effect of over 45% in size; luciferase light after 4 h
# An asterisk follows results filed as active; u = inconclusive; [ ] = remark or other dose. Potency is read from the fitted curve at half-maximal effect. These rows are one share of the data; the hit share may differ from the screen's.
SMILES,SARS PLpro yeast,RE007 growth inh,2A StopGo
O=c1[nH]c2ccc(NS(=O)(=O)c3ccc4ccccc4c3)cc2[nH]1,0%,6%,-6%
COc1ccc(C(=O)NCC(c2cccs2)N2CCOCC2)cc1OC (stereo not drawn),8%,0%,-11%
NC(=O)c1nn(CC(=O)Nc2cccc(S(=O)(=O)N3CCCCCC3)c2)c(=O)c2ccccc12,3%,-8%,-18%
COc1cccc(NC(=O)C(Sc2nnnn2C)c2ccccc2)c1 (stereo not drawn),3%,6%,15%
COc1ccc(CN(CC2CCC(C(=O)O)CC2)C(=S)Nc2cc(Cl)ccc2OC)cc1 (stereo not drawn),-14%,5%,-20%
COCCN(C(=O)CSc1nnc(-c2ccco2)n1C)c1c(N)n(CC(C)C)c(=O)[nH]c1=O,1%,-1%,-9%
Cc1ccc(NC(=O)CSc2nc3nn(-c4ccccc4)c(=O)c-3c3n2CCCCC3)cc1F,-6%,2%,-11%
COc1ccc(-c2cc(C(=O)NCC3CCCO3)c3ccccc3n2)cc1 (stereo not drawn),-8%,13%,10%
CCc1sc(C(=O)Nc2cccc(-n3cnnn3)c2)cc1C,2%,-9%,-5%
Cc1ccc(/C=N\NC(=O)CCc2n[nH]c(=O)[nH]c2=O)o1,-5%,-10%,10%
Cc1ccc(NC(=O)Cn2ncc(Cl)c(Cl)c2=O)cc1S(=O)(=O)N1CCCCC1,2%,-3%,28µM*
O=C(COC(=O)/C=C/c1ccccc1)NC1CCS(=O)(=O)C1 (stereo not drawn),1%,-16%,2%
CC(C)(C)c1ccc(/C=N/Nc2cccc(C(=O)O)c2)cc1,2%,0%,45µM*
CCOC(=O)c1cccc(C2=CC(=O)C[C@H](c3ccc(OC)cc3)C2)c1,1%,10%,46%[activator]
Cn1cccc1/C=N\NC(=O)Cc1ccc(Br)c2ccccc12,-8%,0%,u
CC(C)(C)C(=O)Cn1ncc(Cl)c(Cl)c1=O,1%,-1%,u
CCc1ccccc1NC(=O)CN1CCN(C(=O)CNC(=O)c2ccc(-c3ccccc3)cc2)CC1,-13%,-1%,u
O=C(NCc1ccccc1)c1ccc2c(c1)S(=O)(=O)c1cc(Cl)ccc1C2=O,-29%,-16%,-1%
Cc1ccc2nc(C)cc(Cl)c2c1,2%,0%,-15%
CCOC(=O)c1cc(-c2ccccc2)nn1Cc1cc(CC)no1,-4%,-12%,28%
CCCNC(=O)c1ccc(Cn2cc(-c3ccc(OC)cc3)nc2C(C)N)cc1 (stereo not drawn),2%,-13%,54%[activator]
C[C@H](NC(=O)c1nc[nH]c1C(=O)N1CCN(C(=O)OC(C)(C)C)CC1)c1ccccc1,-3%,2%,-23%
N#CCCN(C(=O)COC(=O)CCc1nc2ccccc2c(=O)[nH]1)c1ccccc1F,-3%,2%,-10%
C[C@H](NS(=O)(=O)c1ccc2c(c1)OCCCO2)C(=O)N1CCN(c2ccc(F)cc2)CC1,5%,-15%,-23%

# Reformatted field by field: entries from further up
structure: CC(C)(C)C(=O)Cn1ncc(Cl)c(Cl)c1=O
  SARS PLpro yeast = 1%; RE007 growth inh = -1%; 2A StopGo = u

structure: CCc1ccccc1NC(=O)CN1CCN(C(=O)CNC(=O)c2ccc(-c3ccccc3)cc2)CC1
  SARS PLpro yeast = -13%; RE007 growth inh = -1%; 2A StopGo = u

# (further entries)
SMILES,SARS PLpro yeast,RE007 growth inh,2A StopGo
O=C(NC1CCCC1)c1cccc2c1C(=O)c1ccc(N3CCCCC3)cc1S2(=O)=O,-2%,-7%,32%[activator]
COc1ccccc1-c1nnc(SCC(=O)NC2CCS(=O)(=O)C2)n1N (stereo not drawn),3%,-5%,-6%
O=C(Nc1ccc(N2CCOCC2)c(S(=O)(=O)Nc2ccc(Cl)cc2)c1)c1ccc(=O)[nH]n1,3%,0%,-6%
O=C1C=C(c2ccccc2)C[C@@H](c2ccc3c(c2)OCO3)C1,-2%,1%,-8%
NS(=O)(=O)c1ccc(CCNC(=O)c2cccc(OC(F)F)c2)cc1,-1%,-23%,-21%
COc1ccc(-n2c(=O)c(CCC(=O)NCCc3ccccc3F)nc3ccccc32)cc1,-4%,12%,3%
O=C(CCN1C(=O)C2CCCCC2C1=O)Nc1nc2c(F)cc(F)cc2s1 (stereo not drawn),-4%,-4%,73%[activator]
CCCCNC(=O)c1ccccc1SCC(=O)NC1CCCCCCC1,0%,20%,-7%
COc1ccc(CC(=O)OCC(=O)NC2CCCCC2)cc1,-1%,-6%,10%
CN(CC(=O)Nc1ccccc1Cl)C(=O)c1cc(C2CC2)nn1-c1ccccc1,6%,11%,-15%
COc1ccc(-c2nc(SC(C)C(=O)c3c(N)n(C)c(=O)n(C)c3=O)n[nH]2)cc1 (stereo not drawn),0%,-10%,-13%
CCCn1c(SCC(=O)Nc2cc(S(=O)(=O)N3CCCCC3)ccc2C)n[nH]c1=O,-11%,10%,0%
COc1cc(C(=O)N2CCN(c3ccccc3Cl)CC2)ccc1OCC(=O)N1CCOCC1,2%,3%,-8%
Cc1ccc(S(=O)(=O)N2[C@@H](c3ccc(Cl)c(Cl)c3)C(C(=O)O)=C[C@H]2C(C)(C)C)cc1,0%,6%,-6%
O=C(c1cccs1)N1CC=C(c2ccccc2)CC1,-3%,-6%,34%[activator]
Cc1ccc2cc3c(N)c4c(C)ccc(C)c4nc3nc2c1,-1%,2%,7%
CC(C)(C)OC(=O)C[C@@H]1C/C=C\C[C@H](CC(=O)N(CCO)Cc2ccccc2)C(=O)N2CCC[C@H]2COC1=O,3%,1%,-22%
Cc1ccc(C(=O)OCC(=O)NCc2ccco2)cc1C,7%,-2%,1%
CCCCC(CC)CNC(=O)Cn1c(=O)[nH]c2ccsc2c1=O (stereo not drawn),-1%,-9%,4%
O=C(O)COc1ccccc1/C=C1\SC(=S)N(NC(=O)c2ccccc2O)C1=O,2%,6%,-17%
CCN(C[C@H]1N[C@@](Cc2ccccc2)(C(=O)OC)[C@H]2C(=O)N(Cc3ccccc3)C(=O)[C@@H]12)C(=O)NC(C)C,1%,6%,-14%
COc1ccc(C(=O)COC(=O)c2sc(C)nc2C)cc1Cl,-1%,-3%,-17%
O=C(NCC1CCCO1)c1cccc(S(=O)(=O)NCc2ccccc2)c1 (stereo not drawn),0%,8%,17%
Nc1sc2c(c1C(=O)NC1CC1)CCCC2,-5%,24%,-4%
O=C(COC(=O)COc1ccc(Cl)cc1Cl)NC1CC1,-2%,0%,-22%
O/C(=C\c1ccc2ccccc2n1)c1ccncc1,1%,-28%,-6%
CC(CCc1ccccc1)NC(=O)CN1C(=O)NC2(CCCCC2C)C1=O (stereo not drawn),-4%,3%,-9%
O=C(CN1CCN(C(=O)CNC(=O)c2ccc3c(c2)OCO3)CC1)Nc1ccccc1Cl,-12%,-11%,u
CNC(=O)c1[nH]cnc1C(=O)Nc1cccc(C)c1,-3%,-6%,59%[activator]
Cc1ccc(S(=O)(=O)Nc2ccc3c(c2)CC(=O)N([C@H](C)CO)C[C@@H](C)[C@H](CN(C)S(=O)(=O)c2ccccc2)O3)cc1,1%,-2%,-3%
O=C(COC(=O)c1c[nH]c2ccccc12)NC1CCCCC1,1%,-10%,32%[activator]
CC(=O)Nc1ccc(S(=O)(=O)N(C)CC(=O)OCC(=O)c2ccc3c(c2)NC(=O)CO3)cc1,-3%,-4%,2%
CC(C)(C)c1nnc(SCC(=O)Nc2ccc(N3CCCCC3)cc2)n1N,-3%,-6%,34%[activator]
COCc1[nH][nH]c(=O)c1C=Nc1ccc(C(F)(F)F)cc1,3%,-20%,-14%
C#CCOCCOCCOCCNc1nc(N2CCN(C(=O)[C@H]([C@@H](C)CC)n3cc(CCCCN)nn3)CC2)nc(N2CCN(C(=O)[C@H]([C@@H](C)CC)n3cc(CCCN=C(N)N)nn3)CC2)n1,8%,-10%,-10%
COc1cc(C(C)=O)ccc1OCC(O)CN(CCO)Cc1ccccc1 (stereo not drawn),3%,-8%,-3%

# Arranged by heavy-atom count (smallest number first): 21 of the compounds above
SMILES,SARS PLpro yeast,RE007 growth inh,2A StopGo
Cc1ccc2nc(C)cc(Cl)c2c1,2%,0%,-15%
Nc1sc2c(c1C(=O)NC1CC1)CCCC2,-5%,24%,-4%
O/C(=C\c1ccc2ccccc2n1)c1ccncc1,1%,-28%,-6%
O=C(COC(=O)COc1ccc(Cl)cc1Cl)NC1CC1,-2%,0%,-22%
Cc1ccc(/C=N\NC(=O)CCc2n[nH]c(=O)[nH]c2=O)o1,-5%,-10%,10%
Cc1ccc2cc3c(N)c4c(C)ccc(C)c4nc3nc2c1,-1%,2%,7%
Cn1cccc1/C=N\NC(=O)Cc1ccc(Br)c2ccccc12,-8%,0%,u
CCOC(=O)c1cc(-c2ccccc2)nn1Cc1cc(CC)no1,-4%,-12%,28%
NS(=O)(=O)c1ccc(CCNC(=O)c2cccc(OC(F)F)c2)cc1,-1%,-23%,-21%
COc1ccc(C(=O)NCC(c2cccs2)N2CCOCC2)cc1OC (stereo not drawn),8%,0%,-11%
COc1cc(C(C)=O)ccc1OCC(O)CN(CCO)Cc1ccccc1 (stereo not drawn),3%,-8%,-3%
O=C(NCc1ccccc1)c1ccc2c(c1)S(=O)(=O)c1cc(Cl)ccc1C2=O,-29%,-16%,-1%
COc1ccc(-c2nc(SC(C)C(=O)c3c(N)n(C)c(=O)n(C)c3=O)n[nH]2)cc1 (stereo not drawn),0%,-10%,-13%
CCCn1c(SCC(=O)Nc2cc(S(=O)(=O)N3CCCCC3)ccc2C)n[nH]c1=O,-11%,10%,0%
O=C(NC1CCCC1)c1cccc2c1C(=O)c1ccc(N3CCCCC3)cc1S2(=O)=O,-2%,-7%,32%[activator]
O=C(CN1CCN(C(=O)CNC(=O)c2ccc3c(c2)OCO3)CC1)Nc1ccccc1Cl,-12%,-11%,u
COCCN(C(=O)CSc1nnc(-c2ccco2)n1C)c1c(N)n(CC(C)C)c(=O)[nH]c1=O,1%,-1%,-9%
NC(=O)c1nn(CC(=O)Nc2cccc(S(=O)(=O)N3CCCCCC3)c2)c(=O)c2ccccc12,3%,-8%,-18%
CCc1ccccc1NC(=O)CN1CCN(C(=O)CNC(=O)c2ccc(-c3ccccc3)cc2)CC1,-13%,-1%,u
CCN(C[C@H]1N[C@@](Cc2ccccc2)(C(=O)OC)[C@H]2C(=O)N(Cc3ccccc3)C(=O)[C@@H]12)C(=O)NC(C)C,1%,6%,-14%
C#CCOCCOCCOCCNc1nc(N2CCN(C(=O)[C@H]([C@@H](C)CC)n3cc(CCCCN)nn3)CC2)nc(N2CCN(C(=O)[C@H]([C@@H](C)CC)n3cc(CCCN=C(N)N)nn3)CC2)n1,8%,-10%,-10%

# Next results
SMILES,SARS PLpro yeast,RE007 growth inh,2A StopGo
Cn1nnnc1SCC(=O)N1CCN(C(=O)c2ccco2)CC1,7%,-10%,-3%
CC(=O)c1ccc(OCC(=O)Nc2ccc(N3CCCCC3)cc2)cc1,-8%,-16%,-13%
C=CC[C@H](CC(=O)N(CCO)Cc1ccccc1)C(=O)N[C@H](COC(=O)[C@@H](CC=C)CC(=O)OC(C)(C)C)Cc1ccccc1,10%,-12%,-12%
CCC(C(=O)OCC(=O)N(CC)c1c(N)n(Cc2ccccc2)c(=O)[nH]c1=O)c1ccccc1 (stereo not drawn),2%,-7%,-17%
CCCN(C(=O)c1ccc([N+](=O)[O-])c(C)c1)c1c(N)n(Cc2ccccc2)c(=O)[nH]c1=O,3%,11%,-7%
Oc1ccccc1-c1cc(-c2ccccc2)n[nH]1,-13%,-13%,18%
CC(NC(=O)COC(=O)/C=C/c1ccc2c(c1)OCO2)c1ccccc1 (stereo not drawn),-6%,8%,-15%
CCCNC(=O)C(Cc1ccc(C(F)(F)F)cc1)NC(=O)c1ccc(C#N)cc1 (stereo not drawn),2%,2%,-13%
CN(C)S(=O)(=O)c1ccc(N2CCCC2)c(C(=O)NNC(=O)c2ccc(F)cc2)c1,5%,65%,-5%
Cc1ccc(C(=O)OCC(=O)NCC2COc3ccccc3O2)cc1 (stereo not drawn),3%,-10%,0%
Oc1ccc(Cl)cc1CNCc1ccc(F)cc1,6%,-3%,3%
CC(C)c1cccc(C(C)C)c1NC(=O)CN(C)C1CCS(=O)(=O)C1 (stereo not drawn),-2%,0%,-1%
CC(C)n1cnc2c(NCc3ccccc3)cc(OCC3CCN(C)CC3)cc21,-12%,-6%,-13%
Cc1cc(C)c2nc(N3CCC(C(=O)NCc4ccccn4)CC3)sc2c1,-1%,0%,13%
